High-throughput results from PubChem.
gsp antag – antagonizes gsp, the McCune-Albright syndrome mutation. gsp-mutant cells, cAMP HTRF, 30 min; control for the full effect not named in the record. Potency, µM (highest dose often 76.9 µM), inactives show top-dose activity change, negative = inhibition, usual class: inhibitors. 340,000 compounds, 0.4% hits; active = falling curve of any shape with a large fitted effect; inconclusive = falling curve, mostly with a smaller effect; inactive = flat or rising curve; cell line not stated here;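 also: intracellular cAMP measured with PDE inhibitor Ro 20-1724 present during compound exposure; potency is read from the fitted curve at half-maximal effect; % is scaled to controls: 0 for no effect and ±100 for the full control effect; nearly all actives have a fitted effect of over 65% in size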
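Cells, 2000/well, grown 16–24 h in DMEM 10% FBS with 0.5 mg/ml G418, then compounds plus […] (300 uM addition stock), 30 min at 37C. cAMP read by HTRF (cAMP-d2 and anti-cAMP antibody-K in lysis buffer) after 30 min RT.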
TRPML1 blocker – human mucolipin-1 channel inhibition | TRPML1-inducible cells, Ca2+ dye fluorescence, FDSS; hits give low values; inhibition of EC80 agonist-evoked calcium signal | 390,000 compounds, 0.02% hits | activity change, negative = inhibition, % (test concentration not listed); in the data active means activity change below about -50%; inconclusive means about -30% to -50%; inactive means above about -30%;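 also: stimulus is agonist 54-4 at its EC80 concentration; % is scaled to controls: 0 for no effect and ±100 for the full control effect; compound concentration not given in the record; the text of the record puts the active cut at -80%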
Target sequence (Q9GZU1 whole entry, looked up): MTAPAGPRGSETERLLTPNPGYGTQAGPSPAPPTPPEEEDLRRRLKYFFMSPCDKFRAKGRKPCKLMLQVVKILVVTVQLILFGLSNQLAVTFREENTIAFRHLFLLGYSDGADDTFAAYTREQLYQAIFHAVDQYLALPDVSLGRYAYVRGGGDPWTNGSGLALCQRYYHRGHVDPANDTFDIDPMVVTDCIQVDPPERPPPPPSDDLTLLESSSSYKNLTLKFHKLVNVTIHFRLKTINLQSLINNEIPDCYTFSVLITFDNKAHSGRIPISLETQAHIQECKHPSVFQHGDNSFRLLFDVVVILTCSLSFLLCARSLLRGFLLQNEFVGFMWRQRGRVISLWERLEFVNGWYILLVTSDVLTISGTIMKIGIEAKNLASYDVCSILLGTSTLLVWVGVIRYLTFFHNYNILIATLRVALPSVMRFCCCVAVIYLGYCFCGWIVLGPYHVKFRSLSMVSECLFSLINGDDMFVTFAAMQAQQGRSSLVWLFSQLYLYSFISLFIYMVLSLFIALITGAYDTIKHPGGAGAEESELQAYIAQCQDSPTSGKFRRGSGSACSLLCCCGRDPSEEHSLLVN
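TRPML1-DL cells, Tet-induced overnight (~16 h, 37 °C) at 1,500 cells/well, were loaded with Ca8 no-wash dye plus quencher for 45-90 min at room temperature. Compounds were pinned during FDSS kinetic reading; agonist 54-4 at EC80 (4 uM final) then added.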
gsp agonist – gsp mutant agonism. gsp mutant cells, cAMP HTRF, 30 min; control for the full effect not named in the record. Potency, µM (titrated, usually from 76.9 µM), inactives show top-dose activation (cAMP increase), usual class: activators. 340,000 compounds, 0.13% hits; active = well fitted activation curve with a large enough effect; inconclusive = small, poorly fitted or top-dose-only effect, or another doubt; inactive = no such curve, though single readings can be large or run the other way; cell line not stated here;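 also: phosphodiesterase inhibitor Ro 20-1724 added with compounds to block cAMP breakdown; potency is read from the fitted curve at half-maximal effect; nearly all actives have a fitted effect of over 60% in size; about a fifth of the inactives were tested at one dose only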
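Cells stably selected in G418 were plated at 2000/well, grown 16-24 hr, then given compounds in DMSO with the PDE inhibitor […] (300 uM solution added) for 30 min at 37C; cAMP was read by HTRF.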
TRPML1 agonist – human mucolipin-1 channel agonism. AID 624414. Q9GZU1. TRPML1-expressing cells, Ca2+ dye fluorescence, FDSS; host cell line not named in the record; reference of the full effect not given here. 410,000 compounds, 0.12% hits. activation, % (concentration not given with the values); in the data active = activation above about 50%; inconclusive = about 30% to 50%; inactive = below about 30%; also: 0% is about no effect; the text of the record puts the active cut at 80%
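Tet-induced TRPML1-DL cells, 1,500 per well, cultured overnight, were loaded with a no-wash Ca2+ dye for 45–90 min. Calcium fluorescence was recorded on the FDSS for 110 s after compound addition, before the EC80 agonist (4 uM 54-4) was added.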
Menin-MLL FL inh – inhibitors of human menin-MLL interaction, wild-type MLL peptide | FP activity change, % at 61.4 µM | Fluorescence polarization, fluorescein-MLL peptide displacement from menin | 290,000 tested, under 10 active; inconclusive = falling polarisation curve, or a change in total fluorescence; inactive = total fluorescence flat and polarisation flat or rising; no compound was filed as active; the % refers to the polarisation; negative = inhibition;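 also: % of control where 0% means no effect; inhibitors lower the polarisation; unlabelled MLL peptide was the positive control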
ClpP mod – qHTS Assay for Activators of ClpP | purified B. subtilis ClpP, FRET peptide cleavage, 20 min | 340,000 compounds, 1.9% hits | Potency, µM (highest dose often 57.5 µM), for inactives: top-dose activity change, negative = active; active = well fitted falling curve with a large enough effect; inconclusive = small, poorly fitted or top-dose-only effect; inactive = no such curve, though single readings can be large or run the other way; also: potency is read from the fitted curve at half-maximal effect; the source files actives as falling curves though it sought activators and does not explain the sign; nearly all actives have a fitted effect of over 65% in size; many hits overshoot -100%
Target sequence (P80244 whole entry, looked up): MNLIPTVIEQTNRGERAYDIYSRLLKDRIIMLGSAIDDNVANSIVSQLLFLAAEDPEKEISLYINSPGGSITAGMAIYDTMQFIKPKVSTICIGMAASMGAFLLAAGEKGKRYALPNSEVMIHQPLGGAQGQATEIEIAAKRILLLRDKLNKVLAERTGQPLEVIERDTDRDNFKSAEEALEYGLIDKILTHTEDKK
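ClpP 10 microg/mL final, pH 8 Tris/KCl buffer with BSA, glycerol, Tween-20; compound pinned in; FRET-FV substrate; RT 20 min; Ex320/Em430; ΔFRET vs ADEP 5.8 microM, DMSO, no enzyme.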
* hit, by the source's call; ? = inconclusive; . = no result given; & = joins results of further samples; [ ] = another dose, or the depositor's remark.

mol,gsp antag,TRPML1 blocker,gsp agonist,TRPML1 agonist,Menin-MLL FL inh,ClpP mod
Cc1ccccc1C(=O)OCn1nnc2ccccc2c1=O,-9%,9,-63%[inhibitor],1.3,2.5,0.5%
CCCCN(C(=O)c1ccc(N2CCCC2=O)cc1)c1c(N)n(CC(C)C)c(=O)[nH]c1=O,10%,-9,13%,0.0,.,-0.8%
COc1ccc(CCNC(=O)C(=O)NCC2OCCN2S(=O)(=O)c2ccc(OC)c(OC)c2)cc1 (centres undefined),7%,2,7%,-0.1,-10,-3.0%
COc1ccc(-n2c(SCC(=O)Nc3ccc4c(c3)OCO4)nc3c(c2=O)SCC3)cc1,-4%,2,-11%,0.0,1.1,-1.4%
CCc1nnc(NC(=O)CCN2C(=O)C3CCCCC3C2=O)s1 (centres undefined),7%,-8,?,-0.4,.,-2.1%
C/C(CC(=O)Nc1ccccn1)=N\NC(=O)Cc1cccc2ccccc12,9%,-15,16%,-0.5,1.3,-0.4%
CC(C)(C)OC(=O)NCCCCCNC(=O)c1[nH]cnc1C(=O)NC1CCN(C(=O)OC(C)(C)C)CC1,-3%,-3,.,1.6,.,-0.4%
Cc1cccc(C)c1NC(=O)CSc1nnc(C)n1-c1ccccc1,-3%,-18,-4%,1.5,1.9,2.3%
CCc1nc(N2CCN(C(C)=O)CC2)c2c3c(sc2n1)CC(C(C)(C)C)CC3 (centres undefined),?,.,-21%,.,-3.3,-1.3%
COc1ccc(C(CCN2CCOCC2)c2c(OC)cc(OC)c3c2OC(=O)CC3c2ccc(OC)cc2)cc1 (centres undefined),.,-4,.,2.0,-8.9,.
CCOC(=O)C1=C(CN(CC)Cc2ccccc2)NC(=O)NC1c1ccc(OC)cc1 (centres undefined),.,6,.,3.3,.,-0.7%
CC[C@H](C)[C@H](NC(N)=O)C(=O)Nc1ccc(OC)c(Cl)c1,1%,24,10%,3.8,5.5,-4.6%
CC(=O)Nc1ccc(NC(=O)CSc2ccc(C(F)(F)F)cc2[N+](=O)[O-])cc1,-4%,-11,12%[15.4 µM],1.0,5.3,.
COc1ccc(OC)c(C(c2nnnn2C2CCCC2)N2CCc3ccccc3C2)c1 (centres undefined),-16%,10,-21%,2.7,2.4,-4.5%
C=C(C)C1(O)OC(=O)C=C1OC (centres undefined),1%,.,.,.,1.8&-4.0,-0.3%
Cc1nn(CC(=O)NCc2ccc(Cl)cc2)c(C)c1[N+](=O)[O-],17%,18,0%,3.8,-7.7,0.5%
O=C(COC(=O)c1n[nH]c2ccccc12)NC(=O)NC12CC3CC(CC(C3)C1)C2,0%,11,13%,-0.9,1.6,-7.1%
Cc1cc(-n2c(SCC(=O)NCc3cccs3)nc3n[nH]c(C)c3c2=N)ccc1Cl,30%,-3,29%,0.0,1.7,1.8%
Cc1ccc2c(c1)N(C(=O)CCC(=O)N1CCN(c3ccccn3)CC1)CC(C)O2 (centres undefined),-5%,-1,16%,0.3,-0.6,4.4%
O=C(COc1ccc(Cl)cc1)NCCc1csc(-c2ccc(F)cc2)n1,.,-6,.,2.2,.,4.4%
COc1ccc(-n2cc(CNCCc3nc(C)cc(C)n3)c(-c3ccccc3Cl)n2)cc1,-5%,11,3%[15.4 µM],-0.2,2.4,.
O=C(Cn1c(=O)c2ccccc2n2nncc12)Nc1cccc(F)c1,.,10,.,-0.9,.,-28%
O=c1n(Cc2ccccc2)c2cc(Cl)cnc2n1Cc1ccccc1,-9%,14,4%,6.9,1.3,28µM*
Cc1ccc(N2CCN(C(=O)c3ccccc3NC(=O)c3ccccc3C(=O)O)CC2)cc1,-9%,-1,-30%,0.0,-1.3,-7.0%
CCN(C(=O)CN1C(=O)S/C(=C\c2ccc(F)cc2)C1=O)C1CCS(=O)(=O)C1 (centres undefined),10%,-6,-4%,0.2,-8.1,0.5%
COc1cccc(NC(=O)NC2CCN(CC(=O)Nc3ccccc3[N+](=O)[O-])CC2)c1,-14%,-1,-1%,0.6,-2.9,.
CSc1ccc(S(=O)(=O)NC2CC3CCC2C3)cc1 (centres undefined),-12%,-17,-22%,1.1,-2.2,-0.5%
Cc1ccc(N2CC(C)Cn3c2nc2c3c(=O)[nH]c(=O)n2C)cc1C (centres undefined),-5%,-12,5%[15.4 µM],-0.8,-20,-27%
COc1cc(C(=O)NCCCCCCNC(=O)c2cc(OC)c(OC)c(OC)c2)cc(OC)c1OC,6%,-2,2%,0.1,-0.5,0.8%
Cc1cc(C(=O)COC(=O)c2ccc3c(c2)NC(=O)CS3)c(C)n1CCc1ccc(Cl)cc1,5%,25,-22%,-0.4,10,.
CCc1cc2cc(C)c(C)cc2nc1SCC(=O)Nc1cc(C)on1,-3%,6,-11%[15.4 µM],-0.5,1.4,.
COCCNc1nnc(SCC(=O)Nc2cc(-c3ccccc3)nn2-c2ccccc2)s1,-17%,-1,-3%[15.4 µM],-0.7,7.8,1.0%
Cc1cccc(NC(=O)C2CCN(C(=O)c3ccco3)CC2)c1C,3%,24,-12%,1.3,-8.2,.
CS(=O)(=O)N(CC(=O)Nc1ccc(S(=O)(=O)N2CCCC2)cc1)c1ccccc1F,-6%,13,13%[15.4 µM],0.3,1.7,-18%
COc1ccc(Cl)cc1C(=O)NNC(=O)CSc1nnc2ccccn12,-1%,-16,0%[15.4 µM],-0.6,0.4,-7.6%
CCC(=O)N1CCCC(C(=O)c2ccc(-c3ccccc3)cc2)C1 (centres undefined),-9%,43,11%[15.4 µM],0.9,-2.9,-2.9%
COc1ccc(CCC(=O)N2CCCSC2=Nc2ccc(C(C)=O)cc2)cc1,-12%,5,10%,1.6,-1.9,1.0%
Cc1cc(C(=O)OCC(=O)Nc2ccc(S(=O)(=O)N3CCOCC3)cc2)c(C)o1,-9%,11,-1%,-0.9,-1.7,0.2%
CCN(Cc1ccccc1)S(=O)(=O)c1ccc(C(=O)Nc2nnc(C3CC3)o2)cc1,-10%,14,29%,-0.3,0.8,-3.0%
Oc1c(Cl)cc(Cl)cc1/C=C/c1ccc2cccc(O)c2n1,-22%,2,?,17,?,.
O=C(O)c1cc(S(=O)(=O)Nc2cc(Cl)ccc2Oc2ccccc2)ccc1O,-11%,-4,7%,0.4,.,-29%
COc1ccc(/C=C/c2nnc(NC(=O)C(C)C)s2)cc1,-2%,22,-4%[15.4 µM],0.5,1.1,.
COc1cc(CNCc2ccc(SC)cc2)cc(OC)c1,0%,-5,3%,0.9,3.7,-0.8%
N#Cc1ccc(NC(=O)CCc2nc3ccccc3s2)cc1,7%,1,-2%,1.0,5.4,1.4%
O=C1C=C(c2ccc3c(c2)oc2ccccc23)C[C@@H](c2ccc(Cl)cc2)C1,-4%,-5,25%,0.2,.,-1.3%
Cc1ccccc1Oc1ccccc1N,0%,14,-27%,1.9,-4.0,.
CC(C)NC(=O)NS(=O)(=O)c1cnccc1N1CCCCC1,5%,3,-37%[inhibitor],-0.5,-6.4,-1.5%
CCN=C(Nc1cccc(F)c1)SC1CC(=O)N(c2ccc(OC)cc2)C1=O (centres undefined),7%,5,0%,1.0,8.3,11%

Full records, quoted from the list. Order of values: gsp antag, TRPML1 blocker, gsp agonist, TRPML1 agonist, Menin-MLL FL inh, ClpP mod
CCN=C(Nc1cccc(F)c1)SC1CC(=O)N(c2ccc(OC)cc2)C1=O (centres undefined) reads 7%, 5, 0%, 1.0, 8.3, 11%
COc1cc(CNCc2ccc(SC)cc2)cc(OC)c1 reads 0%, -5, 3%, 0.9, 3.7, -0.8%

Further records follow:
mol,gsp antag,TRPML1 blocker,gsp agonist,TRPML1 agonist,Menin-MLL FL inh,ClpP mod
c1ccc(CCc2cn(C[C@H]3CC[C@@H]([C@@H]4CC[C@H](Cn5cc(CCc6ccccc6)nn5)O4)O3)nn2)cc1,-27%,11,-7%,0.6,-0.4,-2.4%
Cc1ccc(-n2nnnc2SCC(=O)Nc2cccc(NC(=O)c3ccco3)c2)cc1C,-28%,-7,6%,4.6,4.7,30%
O=C1[C@@H]2CSCN2C(=O)CN1Cc1cccc(C(F)(F)F)c1,12%,-1,19%,0.9,-0.2,.
CC1CCN(CCNC(=O)C2CCCN(S(=O)(=O)c3cccc4nsnc34)C2)CC1 (centres undefined),2%,-7,-16%,-0.2,-5.8,.
Cc1cccc(OC(=O)c2cccnc2)c1,-5%,4,-7%[15.4 µM],-0.3,-0.3,5.2%
O=C(CCNS(=O)(=O)c1ccc(Br)cc1)NCc1cccs1,5%,15,0%,2.6,-2.1,-0.7%
Cc1ccccc1N1CCN(C2CCCN(C(=O)c3cc(C(C)C)[nH]n3)C2)CC1 (centres undefined),-18%,0,?,2.1,5.4,1.5%
Cc1c(N2C(=O)CSC23C(=O)Nc2ccccc23)c(=O)n(-c2ccccc2)n1C (centres undefined),8%,9,9%,-0.2,0.7,-0.6%
c1ccc(Sc2ncnc3ccccc23)cc1,11%,-7,5%[15.4 µM],2.5,-0.9,.
CS(=O)(=O)c1ccc(Cl)c(NC(=O)COC(=O)CCCN2C(=O)c3cccc4cccc(c34)C2=O)c1,-10%,-17,-4%[15.4 µM],0.5,.,.
COC(=O)C1CCCCN1C(=O)c1ccc2oc(C(C)C)nc2c1 (centres undefined),10%,6,?,1.1,1.2,-0.6%
Cc1c(C)c2ccc(OS(C)(=O)=O)cc2oc1=O,8%,-12,15%,-0.9,4.4,-21%
CN1CCN(C(=O)c2ccc(N(Cc3ccc(Cl)cc3)S(C)(=O)=O)cc2)CC1,8%,2,-1%,0.3,0.3,0.7%
CC1(c2ccc(Cl)cc2Cl)NC(=O)N(CC(=O)Nc2ccc3[nH]c(=O)[nH]c3c2)C1=O (centres undefined),5%,-3,6%,-0.1,.,-1.6%
CC1Cc2ccccc2N1C(=O)c1ccc2c(c1)OCO2 (centres undefined),-3%,-18,-6%,1.8,.,0.1%
